Compound activity from PubChem BioAssay.
Bfl-1 A1 inh = caspase 3/7 activation in MEF A1-2A-BIM cells, primary screen, A1 inhibitor project, cell-based, luminescence, HTS; Caspase-Glo 3/7 luminescence, 3 h; percent of clofoctol response, vehicle zero; caspase activation, % (no concentration beside the values); AID 2462, 2010; actives 0.066% (n = 330,000);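 active means over half of replicate activation scores above 10%, or exactly half above 10 with the replicate mean above 10; inconclusive means replicate mean below 10 yet half the replicates above 10; inactive means over half of replicates below 10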;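 further: wells of about 30 µL received 50 nL stock; many hits fall short of the cut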
FGF22 binding = binders of human FGF22 protein, primary screen, FGF22 synaptogenesis inhibitor project, biophysical, thermal shift, single point; recombinant FGF22 thermal shift, SYPRO orange fluorescence; percent of sucrose octasulfate shift, DMSO zero; Fibroblast growth factor 22 (Homo sapiens), Q9HCT0; calls only at 9.99 µM; actives 1.5% (n = 340,000);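 active means melting point raised past a set limit in the mean and every replicate; inconclusive means no clear call; three in four hits are not shown here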
Target sequence (Q9HCT0 whole entry, looked up): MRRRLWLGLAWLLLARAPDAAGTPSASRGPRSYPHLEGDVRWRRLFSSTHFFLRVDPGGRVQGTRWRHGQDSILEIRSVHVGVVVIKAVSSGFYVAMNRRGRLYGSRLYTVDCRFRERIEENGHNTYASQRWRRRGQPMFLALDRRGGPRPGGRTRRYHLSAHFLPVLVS
Beta apoptosis = inhibitors of cytokine-induced beta cell apoptosis, primary screen, luminescence; actives 0.8% (n = 300,000); protection from apoptosis, % (test concentration not listed); INS-1E cytokine-induced death, ATP luminescence, 48 h; percent of positive-control rescue, neutral wells zero; AID 435005, 2010;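 active means all replicates at 75% or more, or half of them and the mean; inconclusive means half reach 75% but not the mean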;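 further: 0% = cytokine-treated negative control wells and 100% = positive control rescue; higher means more ATP so stronger rescue from cytokine killing; wells of about 40 µL received 100 nL stock; the first replicate is given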
AF4-AF9 inh = inhibitors of AF4 peptide binding to AF9, primary screen, biochemical, AlphaScreen, biotin-AF4 peptide, FLAG-AF9, single point; inhibition, % at 10 µM; actives 0.47% (n = 350,000);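 active means every replicate reaching a set inhibition limit, whatever the replicate mean, cut at about 25% in these data; inconclusive means mean inhibition reaches that limit but some replicates miss it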;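 further: 0% = plate neutral control median and 100% = total signal loss; the record names both 10 and 1 µM as test concentration; the first replicate is given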
Target sequence (P42568 whole entry, looked up): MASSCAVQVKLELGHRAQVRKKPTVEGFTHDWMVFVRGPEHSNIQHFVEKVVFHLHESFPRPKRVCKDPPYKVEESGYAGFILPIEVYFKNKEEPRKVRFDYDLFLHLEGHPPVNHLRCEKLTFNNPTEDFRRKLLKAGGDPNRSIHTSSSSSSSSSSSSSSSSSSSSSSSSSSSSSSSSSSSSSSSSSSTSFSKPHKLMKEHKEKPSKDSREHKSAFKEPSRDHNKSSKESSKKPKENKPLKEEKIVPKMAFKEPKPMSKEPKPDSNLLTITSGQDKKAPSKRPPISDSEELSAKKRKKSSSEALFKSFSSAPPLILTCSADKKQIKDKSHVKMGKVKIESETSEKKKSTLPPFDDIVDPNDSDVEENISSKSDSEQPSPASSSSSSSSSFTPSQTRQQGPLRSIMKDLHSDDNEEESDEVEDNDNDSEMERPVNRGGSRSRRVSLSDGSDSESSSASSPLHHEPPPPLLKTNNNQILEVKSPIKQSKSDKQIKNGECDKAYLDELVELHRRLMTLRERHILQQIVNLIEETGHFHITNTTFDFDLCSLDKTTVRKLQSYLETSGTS
T cruzi inh = inhibitors of intracellular T. cruzi growth, primary screen, luminescence, NIH3T3 host cells; actives 1.4% (n = 300,000); AID 1885, 2009; inhibition, % (concentration not given with the values); T. cruzi beta-gal in NIH3T3, 90 h;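 active means mean inhibition across valid replicates above about 55%, limit read from the data; inconclusive means mean below that limit but half or more replicates reach it; inactive means mean below it, under half of replicates reach it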;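 further: signal also drops with host cell toxicity which is not excluded here; 0% = plate median of DMSO wells and 100% = zero luminescence signal; higher percent means less beta-gal luminescence so fewer parasites; stock transfer was 50 nL into about 50 µL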
E coli growth = E. coli growth inhibition, primary screen, OD600. OD600 absorbance (test concentration not listed). actives 0.21% (n = 330,000). Escherichia coli growth, 23 h; stronger effect = lower value;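 active means OD600 absorbance below the run mean of sample wells minus 3.6 SD, in any replicate, cut at about 0.56 in these data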;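 further: stock transfer was 300 nL into about 60 µL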
Ecoli rRNA inh = reduced GFP signal of wild-type E. coli, primary screen, bacterial rRNA inhibitor project, GFP/RFP fluorescence, OD600, single point; E. coli WT GFP vs humanized-ribosome RFP mutants, 24 h; stronger effect = lower value; DMSO median 0, no signal -100; GFP signal change (wild-type ribosome), % (no concentration beside the values); actives 1.6% (n = 350,000); AID 720706, 2013;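 active means significant combined selectivity score with lowered wild-type GFP, culture density cut under 30%, mutant RFP and density less affected; inactive means any of these conditions unmet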; further: one replicate is shown; some compounds called inactive have numbers as strong as hits
UCH37 DUB inh = inhibitors of human UCH37 deubiquitinase, primary screen, biochemical, Ub-AMC cleavage, fluorescence | Ubiquitin carboxyl-terminal hydrolase isozyme L5 (Homo sapiens), Q9Y5K5 | purified proteasome/UCH37 | inhibition, % (no concentration beside the values) | actives 0.33% (n = 330,000) | AID 588478, 2011;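 active means mean of two replicates above 20%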;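 further: 0% = compound-free wells with enzyme and 100% = wells lacking proteasome; stock transfer was 100 nL into about 20 µL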
Target sequence (Q9Y5K5 whole entry, looked up): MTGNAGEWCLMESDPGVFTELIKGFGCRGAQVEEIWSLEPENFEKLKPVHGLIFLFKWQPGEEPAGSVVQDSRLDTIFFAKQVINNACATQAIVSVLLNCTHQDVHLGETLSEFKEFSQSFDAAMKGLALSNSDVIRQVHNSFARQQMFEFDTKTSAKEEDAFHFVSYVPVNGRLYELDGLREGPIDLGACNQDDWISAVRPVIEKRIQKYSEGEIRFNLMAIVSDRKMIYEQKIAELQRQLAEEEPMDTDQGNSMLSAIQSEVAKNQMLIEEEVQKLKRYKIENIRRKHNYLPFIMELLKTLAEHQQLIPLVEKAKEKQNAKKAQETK
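Material: human UCH37 enzyme supplied as purified proteasome complex. Measure: % inhibition of Ub-AMC cleavage fluorescence. Medium: pH 7.4 Tris-HCl (50 mM) with ovalbumin, ATP-MgCl2, DTT. Times: 30 min preincubation with enzyme, 25 min cleavage at room temperature. Detection: AMC fluorescence intensity at 355/460 nm.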
Ecoli rRNA inh OD600 = further read-out of Ecoli rRNA inh, marked with its call; OD600 change, %; measured here: OD600 growth;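 optical density of the mix in the first replicate; 0 = DMSO median and -100 = no signal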
Ecoli rRNA inh RFP = also measured in Ecoli rRNA inh; calls as there; RFP signal change, %; measured here: RFP humanized mutant strains;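 first replicate; 0 = DMSO median and -100 = no signal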
* = called active by the depositor; i = inactive; ? = inconclusive; · = not tested or not shown. The list is partial; rates above refer to the full screens.

SMILES	Bfl-1 A1 inh	FGF22 binding	Beta apoptosis	AF4-AF9 inh	T cruzi inh	E coli growth	Ecoli rRNA inh	Ecoli rRNA inh OD600	Ecoli rRNA inh RFP	UCH37 DUB inh
COC(=O)CNC(=O)C1CCN(S(=O)(=O)c2cccc3nsnc23)CC1	0.9	i	-0.5	0.8	-1.9	0.722	11.1	14.6	-2.1	4.8
COc1cccc(CN(C)C(=O)CC23CC4CC(CC(C4)C2)C3)c1OC	0.2	i	-4.5	-3.3	18.1	0.655	-72.0	-77.6	-27.8	0.5
Cc1[nH]n(-c2ccccc2)c(=O)c1C=NC1CCCCCC1	-0.2	i	0.1	-5.8	11.6	0.673	-12.8	-17.0	-2.8	3.6
COC(=O)Nc1nnc(-c2ccccc2OC)s1	-3.1	i	·	-2.5	4.2	0.672	-3.9	-6.8	-5.1	-32.2
CCOC(=O)C1(Cc2cccc(OC)c2)CCN(Cc2cccc3cnccc23)CC1	0.2	i	-8.7	-10.8	8.4	0.674	-7.4	-29.9	-5.9	-1.8
CCN1CCN(S(=O)(=O)c2cc(C)c(OC)cc2C)CC1	0.4	·	-6.2	·	-14.3	0.698	·	·	·	3.9
CN(Cc1cc2ccccc2[nH]c1=O)S(C)(=O)=O	-0.3	·	-10.8	·	-18.9	0.689	·	·	·	-2.5
Cc1ccc(-c2csc3nc(SCC(=O)N(C)C)n(Cc4ccccc4)c(=O)c23)cc1	-0.5	·	-9.3	·	41.1	0.735	·	·	·	1.0
NC(=O)C1(C(=O)O)OC1(c1ccc(Cl)cc1)c1ccccc1Cl (centres undefined)	·	i	·	-1.3	·	0.66	1.5	5.5	0.1	-1.4
COC(=O)/C=C/c1cc(F)ccc1S(=O)(=O)NC(C)(C)C	1.8	i	-8.0	0.3	-18.6	·	-2.6	0.3	-6.6	5.7
C[n+]1ccn(CC(=O)c2cccs2)c1	0.0	i	-7.2	-0.7	-17.0	0.626	-1.6	11.9	0.7	-2.0
CCN(CC)CCNC(=S)Nc1ccc2nc(N3CCN(CC)CC3)cc(C)c2c1	1.1	i	-4.6	10.8	40.6	0.662	9.2	1.5	0.4	-15.9
CCOc1ccc(N(CC(=O)NCCc2ccccc2)C(=O)c2csnn2)cc1	-0.7	i	2.2	1.6	-0.2	0.644	·	·	·	1.5
CCSc1nnc2ccc(-c3ccco3)nn12	0.5	i	2.9	-12.6	-2.0	0.715	10.2	5.3	6.0	-2.1
O=C(O)C1C2C=CC(O2)C1C(=O)NC1CCCc2ccccc21 (centres undefined)	-0.3	·	-0.7	·	-7.1	0.702	·	·	·	-1.9
O=C(CSc1nnc(-c2ccco2)o1)c1ccccc1Cl	-2.4	i	-11.1	0.0	0.4	0.625	-4.9	-1.5	5.5	0.8
Cc1ccc(-c2noc(CN3CCN(C(c4ccccc4)c4ccccc4)CC3)n2)cc1	1.3	·	3.4	·	6.3	0.768	·	·	·	2.5
CC(=O)Nc1ccc(S(=O)(=O)NCC2CCC(C(=O)N3CCCCCC3)CC2)cc1 (centres undefined)	-0.3	·	1.9	·	-9.2	0.724	·	·	·	-0.3
CC(C)c1ccc(-n2cccc2/C=C2/C(=N)N3C=CSC3=NC2=O)cc1	-0.2	i	32.9	10.7	-21.1	0.684	4.5	0.7	4.5	-53.6
COc1cccc(NC(=O)NC2CC(=O)N(c3ccc4c(c3)OCCO4)C2)c1 (centres undefined)	0.2	i	-5.0	-19.7	15.9	0.639	-1.4	-0.5	1.1	2.2
CC(C)C(OC(=O)c1cccs1)C(=O)NCCc1ccccc1 (centres undefined)	-0.1	i	1.3	-0.8	-5.7	0.699	-2.3	9.7	1.2	4.7
CCN1C(=O)[C@H]2[C@@H](c3ccc(-c4ccc(Cl)c(Cl)c4)c(OC)c3)N3CCCC[C@@]3(C(=O)OC)[C@H]2C1=O	-0.1	i	-2.4	-22.4	·	·	3.8	8.2	-2.2	1.9
O=S(=O)(Nc1cccc(S(=O)(=O)N2CCCC2)c1)c1ccc(Cl)s1	0.5	i	6.0	2.2	·	0.634	-8.1	-24.3	1.1	-1.5
CCOCCCNC(=S)N1CCN(c2nc(-c3ccc(F)cc3)cs2)CC1	0.0	i	4.0	-11.0	11.0	0.671	-35.0	-36.2	2.3	1.9
COc1ccc(S(=O)(=O)Nc2ccccc2-c2nnn(CC(=O)Nc3ccccc3OC)n2)cc1	-0.8	·	34.5	·	26.8	0.7	·	·	·	0.7
Cc1cccc(C(=O)OCC(=O)Nc2c(C)n(C)n(-c3ccccc3)c2=O)c1O	1.3	i	-9.3	2.7	·	0.708	12.1	7.2	-1.1	1.4
N#Cc1ccc(C23CC4(C2)[C@H](CN(Cc2ccc(-c5ccccc5)cc2)[C@@H]4c2ccccc2)C3c2ccccc2)cc1 (some centres undefined)	0.2	i	5.4	-2.3	43.3	·	12.5	12.9	9.1	2.0
CC(=O)c1cccc(OCC(O)CNCC2CCCCC2)c1 (centres undefined)	0.2	i	-1.9	4.9	27.3	0.685	9.3	-1.7	0.2	1.0
Cc1ccc(F)cc1NC(=O)CSc1n[nH]c(N)n1	-0.5	i	-9.8	-0.1	·	0.7	-2.2	-10.4	2.4	4.0
CC(/C=C/c1ccco1)=N/NC(=O)OC(C)(C)C	1.1	i	-2.0	3.3	-18.1	·	24.2	23.8	3.6	·
C=CCc1c(Cl)nc(C)nc1NCc1ccccc1	1.1	i	4.3	-3.7	6.1	0.714	-14.6	-20.5	-9.9	1.9
Cc1ccc(Nc2ccc(N3CCN(c4ccc([N+](=O)[O-])cc4)CC3)nn2)cc1	1.2	i	1.4	·	-21.3	0.698	16.1	2.8	-2.0	5.2
CCOc1ccc(Br)cc1S(=O)(=O)Nc1ccc(Cl)c(S(=O)(=O)N(CC)c2ccccc2)c1	1.1	i	0.2	3.3	5.2	0.729	10.5	-9.9	16.4	3.3
O=C(c1ccccc1)c1ccc(N2CCOCC2)c(F)c1	-0.7	·	-1.1	·	-7.2	0.682	·	·	·	7.2
CCOC(=O)Nc1cc(OCC)c(NC(=O)C2CC2)cc1OCC	-0.1	·	·	·	10.6	0.704	·	·	·	2.9
COc1ccc(-c2nonc2NC(=O)c2oc3ccc(F)cc3c2C)cc1OC	-0.5	i	-9.8	-2.5	-2.7	0.706	16.1	19.4	0.6	1.7
O=S(=O)(c1ccccc1F)N1CCN(Cc2nc3ccccc3[nH]2)CC1	-0.1	·	-6.1	·	-10.0	0.684	·	·	·	-1.1
O=C(O)c1ccc(/C=N/N2CCN(c3ccccc3)CC2)cc1	-7.1	i	-5.8	-2.2	-7.8	·	6.1	4.8	2.1	·
O=C(Cc1ccc(NC(=O)C2CCN(C(=O)c3ccccc3)CC2)cc1)Nc1cccc(C(=O)N2CCCC2)c1	·	·	·	2.3	·	0.714	2.1	5.1	-6.5	0.5
C=CCc1ccc2oc(C(=O)OCC)cc(=O)c2c1O	-0.1	i	-2.0	-1.9	0.9	0.682	9.8	1.7	1.5	1.2
CCOc1ccccc1/C=C/c1nc2ccccc2[nH]c1=O	?	i	-4.7	3.3	13.8	·	-10.1	-22.4	-0.6	·
Cc1cc(NC(=O)c2ccc(Cn3nc(C)c(Br)c3C)o2)no1	0.6	i	·	1.7	-21.4	0.715	17.5	11.8	0.0	2.1
O=C(O)CCCNC(=O)Cc1ccccc1	1.0	·	-9.4	-0.1	5.6	0.717	14.3	-7.7	-4.2	5.4
O=C(NCc1ccc2c(c1)OCO2)c1cc2c(s1)CS(=O)(=O)C2	0.2	·	-3.6	·	-10.1	0.686	·	·	·	-1.6
CSc1ccc(S(=O)(=O)NC(C)c2ccccc2)cc1 (centres undefined)	0.9	i	-4.4	-1.7	1.0	0.635	-30.1	-39.6	-5.0	2.7
Cc1ccc(C(=O)NCCCN2CCN(CCCNC(=O)c3ccc(C)cc3)CC2)cc1	0.6	i	-4.4	3.6	-13.4	0.697	7.0	6.5	2.3	-0.1
Cc1ccccc1NS(=O)(=O)c1ccc(C(=O)N2CCCCCC2)cc1	0.0	i	7.0	-4.2	0.1	0.641	-2.7	-5.6	2.2	3.3
Nn1c(SCC(=O)N2CCCc3ccccc32)nncc1=O	-0.2	i	-4.0	-0.8	-9.3	0.714	-1.2	-4.6	-3.0	2.9
O=C(CCN1C(=O)/C(=C\c2ccccc2)SC1=S)NNC(=O)c1ccccc1O	-0.9	i	3.4	-0.5	9.2	0.718	6.6	18.5	4.0	12.9
CC1CN(Cc2ccco2)C(=S)NC1=O (centres undefined)	·	i	·	-1.9	·	0.72	14.8	15.8	-0.7	-0.1

More results follow.
SMILES	Bfl-1 A1 inh	FGF22 binding	Beta apoptosis	AF4-AF9 inh	T cruzi inh	E coli growth	Ecoli rRNA inh	Ecoli rRNA inh OD600	Ecoli rRNA inh RFP	UCH37 DUB inh
Cc1cc(C)c2c(c1)/C(=c1/sc3n(c1=O)CN(c1ccccc1)CN=3)C(=O)N2	-0.1	i	1.4	-7.7	-7.6	·	6.9	13.3	-3.6	·
Cc1ccc(C(=O)NC2(C(Cl)Cl)N=C(c3ccccc3)N=C2N)cc1 (centres undefined)	0.7	i	-0.7	-1.4	-6.7	0.657	1.5	1.3	1.7	0.5
COc1cc(C(=O)Nc2ccc3nc(N4CCN(C)CC4)cc(C)c3c2)cc(OC)c1OC	0.2	i	-3.7	11.8	29.9	0.678	-9.1	2.0	5.2	4.9
CC(C)C(NC(=O)C(C)N1C(=O)c2ccccc2C1=O)c1ccccc1 (centres undefined)	1.8	i	-2.7	-39.0	8.0	0.726	13.2	10.3	3.5	1.8
CCCOc1ccccc1C(=O)NCCCC(=O)O	0.1	·	5.7	·	-1.5	0.767	·	·	·	2.4
Fc1cccc(C2NC(=S)NC3=C2N2CCC3CC2)c1 (centres undefined)	1.4	·	-7.0	·	-9.4	0.659	17.7	12.6	2.4	2.6
O=C(NNC(=O)c1cccc(S(=O)(=O)N2CCN(c3ccccc3)CC2)c1)c1ccc(Cl)cc1	0.9	·	-5.3	·	22.2	0.732	·	·	·	4.0
Cc1cc(C(=O)N/N=C/c2cccnc2)c2ccccc2n1	?	i	-2.8	-0.4	-6.2	·	6.1	7.4	-1.8	·
Cc1cc(NC(=O)COC(=O)C2CCCN2C(=O)c2cccs2)no1 (centres undefined)	-0.6	·	-0.2	·	4.2	0.703	·	·	·	-1.8
COc1ccc(OC)c2c(N3CC(C)OC(C)C3)cc(C(F)(F)F)nc12 (centres undefined)	-0.9	·	-6.4	·	-4.9	0.728	·	·	·	-37.4
CCOC(=O)C1CCN(CCC(=O)Nc2ccc(C)cc2)CC1	0.0	i	1.2	1.6	12.2	0.733	1.7	-1.0	0.0	1.4
